VACV Venus inh: vaccinia inhibition (Venus reporter) | Vaccinia virus Venus reporter expression, fluorescence | Potency, µM (highest dose often 36.5 µM), inactives show at the top dose activity change, negative = inhibition, most hits filed as inhibitors | 330,000 compounds, 0.46% hits; active means well fitted inhibition curve with a large enough effect; inconclusive means small, poorly fitted or top-dose-only effect; inactive means no such curve, though single readings can be large or run the other way; tested in A549 cells; note: nearly all actives have a fitted effect of over 30% in size; inactives centre near -10
VACV mCherry inh: vaccinia inhibition (mCherry reporter); Vaccinia virus mCherry reporter infection, fluorescence; about a quarter of the inactives have no number; Potency, µM (series often up to 36.5 µM), inactives show at the top dose activity change, negative = inhibition, hits mostly inhibitors; 310,000 compounds, 0.63% hits; AID 720579; active = well fitted inhibition curve with a large enough effect; inconclusive = small, poorly fitted or top-dose-only effect; inactive = no such curve, though single readings can be large or run the other way; tested in A549 cells; note: nearly all actives have a fitted effect of over 35% in size; inactives centre near -10
* hit, by the source's call; i = inactive; ? = inconclusive; . = no result given; [ ] = another dose, or the depositor's remark. % is set by controls: 0 for no effect and ±100 for the full control effect; potency is the fitted concentration of half-maximal effect.

SMILES	VACV Venus inh	VACV mCherry inh
CN(C(=O)C1CCOC1)c1nnc(C2CCOC2)s1 (stereo not given)	-10%	-10%
C=CCN=C1N[C@@H](c2cccc(C(F)(F)F)c2)C(C(=O)OC)=C(C)N1CC	-21%	4%
COc1ccccc1NC(=O)Cc1nc(=O)[nH]c(=O)[nH]1	-5%	-14%
CCOC(=O)C1(P(=O)(c2ccc(Cl)cc2)c2ccc(Cl)cc2)CCC1	7%	-3%
O=C1C2CC=C(Cl)CC2C(=O)N1c1ncn[nH]1 (stereo not given)	3%	-17%
[2H]C([2H])(CCOS(N)(=O)=O)c1ccccc1	-7%	i
CCC(C(=O)OC)n1cnc2c(nnn2-c2ccc(C)cc2)c1=O (stereo not given)	-15%	i
CN1CCN(C(=O)C2CCCCC2C(=O)O)CC1 (stereo not given)	1%	-12%
CN1CCN(C(=O)Cc2nc3ccccc3[nH]2)CC1	5%	-8%
COc1ccc(NC(=O)C(c2ccc(C#N)cc2)n2c(=O)c(-c3cc4ccccc4[nH]3)nc3ccccc32)cc1 (stereo not given)	-17%	?
Cc1ccc(-n2nnc(-c3ccnc4ccccc34)n2)cc1	-18%	-14%
CCC(C)[C@H](N)c1nnc(SCc2ccc(Cl)c(Cl)c2)o1 (stereo not given in full)	7%	-7%
O=C(c1cccc([N+](=O)[O-])c1)N1CCOCC1	-8%	-17%
CC(=O)O[C@H]1CC[C@@]2(C)[C@@H](CC[C@H]3[C@@H]4CC[C@H](C(C)O)[C@@]4(C)CC(=O)[C@@H]32)C1 (stereo not given in full)	-16%	-10%
Cc1ccc(CC(=O)NCC(c2ccco2)N(C)C)cc1C (stereo not given)	-3%	-8%
CCOc1ccccc1C(=O)NCC(c1ccc(N(C)C)cc1)N1CCc2ccccc21 (stereo not given)	-21%	-10%
CC(C)Sc1nc2sc3c(c2c(=O)n1Cc1ccccc1)CCCC3	-6%	-12%
O=C(/C=C/c1ccccc1Cl)Nc1ccc2c(c1)C(=O)NC2=O	-20%	i
O=Cc1ccc(OCc2nnsc2Cl)cc1	6%	5%
O=C(NCc1ccc2c(c1)OCO2)c1ccc2c(c1)N(Cc1ccccc1F)C(=O)c1ccccc1S2	-1%	3%
CN1C(=O)CC(N2CCN(Cc3ccc(Cl)cc3)CC2)C1=O (stereo not given)	-13%	-14%
CC(C)CNC(=O)CSc1nc(-c2cccs2)cc(C(F)(F)F)n1	-9%	i
CN(C)S(=O)(=O)c1cccc(COC(=O)C2=COCCO2)c1	2%	-14%
N#CCC(=O)Nc1ccc(C(=O)OCC(=O)NNC(=O)c2ccc(Cl)cc2)cc1	18%	-19%
CC1(C(=O)Nc2ccc3c(c2)OCCO3)CCC(=O)N1CCOc1ccccc1 (stereo not given)	-4%	10%
Cc1cc(C)cc(NC(=O)CCn2ccnc2C)c1	?	.
COc1ccc(S(=O)(=O)N2CCCC(C(=O)NCCc3ccccc3)C2)cc1 (stereo not given)	-23%	?
CSc1nc(N(C)NC(=O)c2ccccc2)c2ccccc2n1	?	?
COc1ccc(-n2c(O)c(C=Nc3c(C)n(C)n(-c4ccccc4)c3=O)c(=O)[nH]c2=O)cc1	12%	6%
Cc1ccc(C(=O)NCc2ccccc2F)cc1S(=O)(=O)N1CCCC1	-7%	-10%

Look-ups from the list.
CC1(C(=O)Nc2ccc3c(c2)OCCO3)CCC(=O)N1CCOc1ccccc1 (stereo not given) – VACV Venus inh: -4%
O=Cc1ccc(OCc2nnsc2Cl)cc1 – VACV Venus inh: 6%
N#CCC(=O)Nc1ccc(C(=O)OCC(=O)NNC(=O)c2ccc(Cl)cc2)cc1 – VACV mCherry inh: -19%
O=C(/C=C/c1ccccc1Cl)Nc1ccc2c(c1)C(=O)NC2=O – VACV Venus inh: -20%
COc1ccc(-n2c(O)c(C=Nc3c(C)n(C)n(-c4ccccc4)c3=O)c(=O)[nH]c2=O)cc1 – VACV Venus inh: 12%
O=C(NCc1ccc2c(c1)OCO2)c1ccc2c(c1)N(Cc1ccccc1F)C(=O)c1ccccc1S2 – VACV mCherry inh: 3%

Next part:
SMILES	VACV Venus inh	VACV mCherry inh
CN(C)/C=C/C(=O)/C=C/c1ccc(Cl)cc1Cl	-12%	-14%
CC(C)CNC(=O)c1noc2c1CCCC2	-17%	-12%
CC(=O)N=c1nc(-c2ccccc2)n(-c2ccccc2)s1	?	-23%
O=C(NCCNC(=O)c1ccc(Cl)cc1Cl)c1ccco1	0%	-7%
C=CCNC(=O)c1cccc(NS(=O)(=O)c2ccc(Cl)cc2)c1	0%	i
CCOC(=O)c1ccc(N2C(=O)CC(NC3CCN(C(=O)c4ccc(F)cc4)CC3)C2=O)cc1 (stereo not given)	-7%	.
CCOc1cccc2c1OC1(C)CC2NC(=O)N1c1ccc(OC)cc1 (stereo not given)	-14%	i
CC(=O)c1sc(NC(=O)C2COc3ccccc3O2)nc1C (stereo not given)	-2%	-13%
CC(C)(C)C(=O)OC/C(N)=N/OC(=O)c1ccccc1	-11%	-11%
NS(=O)(=O)c1ccc(NC(=O)CSc2nnc(COc3ccccc3Cl)n2C2CC2)cc1	-7%	-15%
O=C(CCCN1C(=O)/C(=C/c2cccs2)SC1=S)Nc1cccc(C(=O)O)c1	-2%	i
COC(=O)C1=C(c2c(C)noc2C)C[C@@H]2CC[C@H]1N2C(=O)NCCNC(C)=O	-6%	i
Cc1ccc(S(=O)(=O)NCC(c2ccc3c(c2)OCO3)N2CCOCC2)cc1 (stereo not given)	-4%	-21%
Cc1ccc(N2CCN(C(=O)C3CCC(=O)N(Cc4ccc(Cl)cc4)C3)CC2)c(C)c1 (stereo not given)	-24%	-13%
Cc1cc(NC(=O)Nc2ccc(F)cc2F)n(C)n1	6%	-9%
Cc1nn2c(C)c(C(=O)NCc3ccc(OC(C)C)cc3)cnc2c1-c1ccc(F)cc1	-10%	-13%
O=C(CSCc1cnn(-c2ccccc2)c1-n1cccc1)NCc1ccc2c(c1)OCO2	-7%	.
CCCCN(C(=O)CSc1nnc2ccccn12)c1c(N)n(Cc2ccccc2)c(=O)[nH]c1=O	1%	-25%
Cc1ccc(OCC(=O)Nc2c(C(=O)c3ccccc3)oc3ccccc23)cc1C	-22%	-17%
Cc1nc(NCC2CCCO2)[nH]c(=O)c1CCC(C)C (stereo not given)	-15%	.
CC(C)CCN1C(=O)CSCC1(C)C(=O)Nc1ccc2c(c1)OCCO2 (stereo not given)	3%	-10%
Cc1noc(C)c1COc1ccc(C(=O)N2CCN(S(=O)(=O)c3ccc(Cl)cc3)CC2)cc1	-14%	i
CC1(C(=O)N2CCN(C(=O)c3ccco3)CC2)CCN1Cc1ccccc1OC(F)F (stereo not given)	-8%	2%
COc1ccc(NC(=O)NNC(=O)COc2ccc3ccccc3c2)cc1OC	-11%	-13%
CCCNC(=O)CNC(=S)N(Cc1ccccc1F)C1CCCCC1	-3%	i
O=[N+]([O-])c1cc2ccccc2c(O)c1O	1%	?
O=C(CSc1nccn1Cc1ccco1)Nc1cccc(F)c1	-11%	-11%
CCN(CC)C1CCN(c2nc3nonc3nc2NCCOC)C1 (stereo not given)	-20%	i
CC(C)CCN(N=O)[C@@H](Cc1ccccc1)CN(N=O)[C@@H](Cc1ccccc1)CN(C)N=O	?	i
C[C@H](CO)N1C[C@H](C)[C@H](CN(C)C(=O)Nc2ccc(C(F)(F)F)cc2)Oc2ncc(Br)cc2C1=O	-15%	-8%
C[C@H](CO)N1C[C@H](C)[C@@H](CN(C)CC2CCCCC2)Oc2ccc(NC(=O)Cn3cnnn3)cc2C1=O	-7%	-26%
COc1ccc(-c2nnc(SCC(=O)Nc3cc(OC)ccc3OC)nc2-c2ccc(OC)cc2)cc1	-15%	-10%
O=C(NCc1nc2ccccc2[nH]1)c1c(F)cccc1F	-1%	-8%
COCCCNc1nc2c([nH]1)c(=O)[nH]c(=O)n2C	-9%	-1%
CCCN1C(=O)/C(=C\c2ccncc2)SC1=Nc1ccccc1	-23%	?
COc1cccc(NC(=O)CNC(=O)c2ccc([N+](=O)[O-])cc2)c1	-5%	-14%
CCS(=O)(=O)N1CCN(C(=O)c2cc(OC)cc(OC)c2)CC1	-12%	-5%
CCc1nnc(NC(=O)Cc2ccc(OCc3c(C)noc3C)cc2)s1	?	-5%
O=C(CC12CC3CC(CC(Br)(C3)C1)C2)NC1CCCC1	-2%	-12%
CC(=O)N1c2c(cc(Br)cc2S(=O)(=O)N2CCN(c3ccccn3)CC2)CC1C (stereo not given)	-29%	?
Cc1c(Cl)cccc1NC(=O)CSc1nnc(C)n1-c1ccccc1	-6%	-5%
CCc1nc2c(OCc3ccccc3)cccn2c1N(C)C(C)=O	6%	-2%
CCCN(S(=O)(=O)c1ccccc1F)S(=O)(=O)c1ccccc1Br	-4%	-7%
COc1ccc(SCC(O)Cn2c3ccccc3c3ccccc32)c(OC)c1 (stereo not given)	-4%	-5%
O=[N+]([O-])c1cc(S(=O)(=O)Nc2cccc(Cl)c2)ccc1N=Nc1c(O)[nH]c2ccccc12	-8%	-15%
CCOC(=O)c1ccc(NC(=O)COC)cc1	-12%	-17%
Cc1cccc(NC(=S)NCc2ccco2)c1C	-5%	-11%
CCOc1ccc2c(c1)c(=O)c(C(=O)c1ccc(CC)cc1)cn2CC(=O)Nc1cccc(Cl)c1	-22%	-21%
COc1cc(NC(=O)CN2CCN(c3ccccc3F)CC2)cc(OC)c1	1%	-15%
COc1ccc(CN(C(=O)c2ccccc2Br)C2CCS(=O)(=O)C2)cc1 (stereo not given)	-3%	i
Cc1nc2c3cc(Cl)ccc3n(CCN3CCCCC3)c2s1	-28%	-12%
COc1ccc(C(=O)NCC(=O)OCC(=O)N2CCN(S(=O)(=O)c3ccccc3)CC2)cc1	-8%	-5%
Cc1ccc(OC(=O)c2cccc(S(=O)(=O)N3CCN(C)CC3)c2)c(Br)c1	-18%	-8%
O=C(NCc1ccccc1)C1CCCN(c2ncnc3c2nc2n3CCCCC2)C1 (stereo not given)	-17%	-10%
Cc1ccc2c(=O)n3c(nc2c1)C(C)NC(=O)c1cccnc1-3 (stereo not given)	-17%	-12%
CC1CC(C)(C)NC(=S)N1CCCC(=O)Nc1ccc(Br)cc1 (stereo not given)	-24%	-8%
CCOc1ccc(/C=N/NC(=O)Nc2ccccc2)cc1	-7%	-8%
CCc1cccc(-n2nnc(S(=O)(=O)c3ccc(OC)cc3)c2C)c1	-6%	-11%
COc1ccc(CCCc2nnc(SCC(=O)Nc3ccc(C)cc3)o2)cc1C	-7%	9%
CCOC(=O)N1CCN(CCC(=O)Nc2cccc(Br)c2)CC1	-10%	i

(further entries)
SMILES	VACV Venus inh	VACV mCherry inh
Cn1ncc2c(Nc3cccc(F)c3)ncnc21	-9%	i
Cc1cccc(C)c1N=Nc1c(C)cc(O)cc1C	?	-25%
O=C(/C=N/O)Nc1ccc2sc3ccccc3c2c1	-2%[7.34 µM]	i[7.34 µM]
CC(/C=N/n1c(-c2ccc(Cl)cc2)n[nH]c1=S)=C\c1ccco1	-13%	-4%
CC(=O)C1=C(O)C(=O)N(c2ccc(Br)cn2)C1c1ccc(F)cc1 (stereo not given)	-7%	-3%
CCCCn1c(N)c(N(CCOC)C(=O)c2oc3c(Cl)cccc3c2C)c(=O)[nH]c1=O	-26%	-11%
COc1ccc(CNCCCSc2nnnn2C)c(OC)c1	-6%	-2%
O=C(Nc1ccc2c(c1)OCO2)c1ccc2nc[nH]c2c1	-4%	.
CCNC(=S)N1CCc2cc(OC)c(OC)cc2C1COc1ccc(F)cc1 (stereo not given)	-3%	-3%
COc1cccc(/C=N/NC(=O)c2cc3cc([N+](=O)[O-])ccc3s2)c1O	?	5µM*
CC(=O)Nc1ccc(S(=O)(=O)NCCC(=O)OCC(=O)c2cc(C)ccc2C)cc1	-5%	-12%
O=C(CN1CCN(Cc2ccccc2)CC1)Nc1ccccc1-c1ccccc1	-12%	?
O=C(Oc1ccc(Cl)cc1)c1ccc2nccnc2c1	-3%	-7%
COc1cc(S(=O)(=O)NCCOC23CC4CC(CC(C4)C2)C3)c(OC)cc1Cl	-10%	-27%
Cc1nc2ccccc2cc1C(=O)N/N=C/c1cccc([N+](=O)[O-])c1	3%	-6%
Cc1ccc(-n2nc(C)c3c(C(F)(F)F)cc(-c4cccnc4)nc32)cc1Cl	-6%	-2%
CC(=O)N1CCN(c2ccc(NC(=S)NC(=O)c3ccccc3)cc2)CC1	2%	i
CC(NC(=O)C1CCOCC1)c1nnc2n1CCN(Cc1ccc3cccnc3c1)CC2 (stereo not given)	-6%	-8%
O=C1NC(=O)C2(CCCC2)C(=O)N1	0%	i
COCCNC(=O)c1[nH]c(C(F)(F)F)nc1-c1ccccc1	-12%	i
C=CCNC(=S)Nc1nc2c(cc1C(=O)OCC)CCCC2	-29%	i

One compound at a time, from the list above. Screens in order: VACV Venus inh, VACV mCherry inh
Cc1c(Cl)cccc1NC(=O)CSc1nnc(C)n1-c1ccccc1 is listed as -6%, -5%
COc1ccc(NC(=O)NNC(=O)COc2ccc3ccccc3c2)cc1OC is listed as -11%, -13%
CC1(C(=O)Nc2ccc3c(c2)OCCO3)CCC(=O)N1CCOc1ccccc1 (stereo not given) is listed as -4%, 10%
CC(C)Sc1nc2sc3c(c2c(=O)n1Cc1ccccc1)CCCC3 is listed as -6%, -12%

Grouped by structure, the compounds so far containing a CF3 group (5)
SMILES	VACV Venus inh	VACV mCherry inh
C=CCN=C1N[C@@H](c2cccc(C(F)(F)F)c2)C(C(=O)OC)=C(C)N1CC	-21%	4%
CC(C)CNC(=O)CSc1nc(-c2cccs2)cc(C(F)(F)F)n1	-9%	i
C[C@H](CO)N1C[C@H](C)[C@H](CN(C)C(=O)Nc2ccc(C(F)(F)F)cc2)Oc2ncc(Br)cc2C1=O	-15%	-8%
Cc1ccc(-n2nc(C)c3c(C(F)(F)F)cc(-c4cccnc4)nc32)cc1Cl	-6%	-2%
COCCNC(=O)c1[nH]c(C(F)(F)F)nc1-c1ccccc1	-12%	i

Source: PubChem (National Center for Advancing Translational Sciences (NCATS))
